Compound activity (PubChem BioAssay)
Cruzain inh Det = cruzain (T. cruzi) inhibition with detergent; AID 1478; purified cruzain, Z-FR-AMC fluorescence, 0.01% Triton; Potency, µM, for inactives: max response, negative = inhibition, hits mostly inhibitors; P25779; 200,000 tested, 0.43% active;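 further: plate controls were neutral wells for no effect and buffer without enzyme for full effect; nearly all actives have a fitted effect of over 40% in size; top concentration of the series not given in the record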
Target sequence (P25779 123-467 limits assumed): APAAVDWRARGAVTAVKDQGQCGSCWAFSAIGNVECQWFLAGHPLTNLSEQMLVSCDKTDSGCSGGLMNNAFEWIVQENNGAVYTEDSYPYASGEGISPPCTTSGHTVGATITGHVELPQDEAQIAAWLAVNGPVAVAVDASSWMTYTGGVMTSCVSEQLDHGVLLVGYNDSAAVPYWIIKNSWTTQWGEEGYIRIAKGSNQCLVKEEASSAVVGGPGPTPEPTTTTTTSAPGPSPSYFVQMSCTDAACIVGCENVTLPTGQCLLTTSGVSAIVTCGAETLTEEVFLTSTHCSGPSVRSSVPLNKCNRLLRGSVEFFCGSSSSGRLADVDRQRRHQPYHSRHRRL
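Cysteine protease activity tested under reducing, mildly acidic conditions (100 mM sodium acetate pH 5.5, 5 mM DTT) plus 0.01% Triton X-100. Cruzain 1.5 nM; substrate Z-FR-AMC 2 uM; 15 min compound preincubation at room temperature.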
NS1 function inh = blocks influenza NS1 protein function; S. cerevisiae slowed by influenza A NS1, growth recovery by OD600; Potency, µM (highest dose often 46.1 µM), for the others: top-dose activity, positive = more growth; 270,000 tested, 0.4% active; AID 2326; active means well fitted rising curve with a large enough effect; inconclusive means small, poorly fitted or top-dose-only effect; inactive means no such curve, though single readings can be large or run the other way; further: nearly all actives have a fitted effect of over 50% in size
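Recovery from NS1-induced slow growth read by OD600 in budding yeast switched to galactose assay medium (pH 6.0, -URA) at 1:100 dilution. Compound 23 nl per well; the matching strain lacking NS1 serves as control.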
RE007 growth inh = less growth of the S. pombe RE007 Vpr strain; S. pombe RE007 Vpr strain, BacTiter-Glo ATP luminescence, 24 h; control for the full effect not named in the record; Potency, µM (series often up to 92.2 µM), for the others: top-dose activity change, negative = less growth; 360,000 tested, 0.21% active; active = well fitted falling curve with a large enough effect; inconclusive = small, poorly fitted or top-dose-only effect; inactive = no such curve, though single readings can be large or run the other way;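 further: on the % scale 0 is the no-effect control and ±100 the full control effect; nearly all actives have a fitted effect of over 50% in size; the assay follows cell death caused by Vpr and the record does not say whether a fall means rescue or toxicity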
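Fission yeast strain RE007, carrying one chromosomally integrated HIV-1 vpr copy, was seeded at OD 0.01 in PMG+AL medium with 23 nL pinned compound. After 24 h at 30 °C and 99% humidity, viability was read by BacTiter-Glo luminescence.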
2A StopGo = FMDV 2A StopGo reporter, luciferase signal. human cells with a luciferase reporter of 2A StopGo recoding; control for the full effect not named in the record. Potency, µM (top dose mostly 57.9 µM), inactives show at the top dose signal change, negative = less light. 410,000 tested, 1.2% active; active = well fitted falling curve with a large enough effect; inconclusive = small, poorly fitted or top-dose-only effect; inactive = no such curve, though single readings can be large or run the other way; tested in HEK293T cells; further: on the % scale 0 is the no-effect control and ±100 the full control effect; nearly all actives have a fitted effect of over 45% in size; luciferase light after 4 h
SARS PLP yeast = inhibitors of SARS-CoV papain-like protease in yeast; S. cerevisiae expressing SARS-CoV PLpro, growth rescue; control for the full effect not named in the record; Potency, µM (titrated, usually from 32.9 µM), without a hit: at the top dose activity, positive = growth rescue; 330,000 tested, 0.19% active; active means well fitted rising curve with a large enough effect; inconclusive means small, poorly fitted or top-dose-only effect; inactive means no such curve, though single readings can be large or run the other way; further: 0% is about no effect; nearly all actives have a fitted effect of over 55% in size; growth read by luminescence after 48 h
MARV entry inh = Marburg virus entry inhibition. AID 540276. Potency, µM (top dose mostly 37.8 µM), without a hit: top-dose activity change, negative = inhibition, actives largely listed as inhibitors. 300,000 tested, 1.8% active. Marburg virus pseudotyped entry inhibition, cell reporter; control for the full effect not named in the record; about a third of the inactives were read at about 46 µM; active = well fitted inhibition curve with a large enough effect; inconclusive = small, poorly fitted or top-dose-only effect, or effect the other way; inactive = flat fitted curve, though single readings scatter; tested in HEK293 cells; about a fifth of its hits are not listed in these tables; further: on the % scale 0 is the no-effect control and ±100 the full control effect; luciferase read-out
Cruzain noTriton = inhibitors of Trypanosoma cruzi cruzain without detergent. Potency, µM, for the others: max response, negative = inhibition, usual class: inhibitors. purified cruzain, Z-FR-AMC fluorescence, no detergent. P25779. AID 1476. 200,000 tested, 2.3% active;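 further: plate controls were enzyme without inhibitor for no effect and buffer without enzyme for full effect; nearly all actives have a fitted effect of over 40% in size; top concentration of the series not given in the record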
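Detergent-free condition (0.00005% Triton X-100) in acetate buffer pH 5.5 with DTT. 1.5 nM enzyme and compound were pre-mixed 15 min, then 2 uM Z-FR-AMC substrate added; reaction progress from fluorescence change between first and third reads (60 s).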
Lassa entry inh = blocks Lassa virus binding to or entry into cells; Potency, µM (top dose mostly 37.9 µM), for the others: at the top dose activity change, negative = inhibition, actives largely listed as inhibitors; Lassa virus pseudotype entry inhibition, cell reporter; control for the full effect not named in the record; 300,000 tested, 1.2% active; AID 540256; active means well fitted inhibition curve with a large enough effect; inconclusive means small, poorly fitted or top-dose-only effect, or effect the other way; inactive means flat fitted curve, though single readings scatter; tested in HEK293 cells; further: on the % scale 0 is the no-effect control and ±100 the full control effect; nearly all actives have a fitted effect of over 50% in size; luciferase read-out
Starred values were filed as active, the others as inactive; ? = inconclusive; / = not tested or not shown; [ ] = dose if it differs, or a comment. Unless noted, the call rests on the fitted dose curve; in most records, active means well fitted curve in the direction sought with a large enough effect; inconclusive means small, poorly fitted or top-dose-only effect, or another doubt; inactive means no such curve, though single readings can be large; an effect the other way counts as inactive or inconclusive. Potency means the concentration at half of the fitted maximal effect. This is a random part of the collection. About 4.5% of those tested had a hit in this group.

entry	smiles	Cruzain inh Det	NS1 function inh	RE007 growth inh	2A StopGo
1	CCCc1ccc(-c2cc(NC(=O)CSc3nnc(N)s3)n(-c3ccccc3)n2)cc1	-14%	?	-6%	6%
2	O=C(Nc1ccccc1N1CCCCC1)c1ccc(F)c(S(=O)(=O)N2CCOCC2)c1	/	/	32%	1%
3	C=C(c1ccc2nc(NC(=O)OC)[nH]c2c1)c1cccs1	/	/	9%	12%
4	CCOC(=O)N1CCc2c(sc3c2c(=O)n(-c2ccc(CC)cc2)c(=O)n3Cc2ccc(F)cc2Cl)C1	-3.5%	/	/	-8%
5	[O-][n+]1cccc2cccc(O)c21	/	/	25%	3%
6	CCOC(=O)N1CCN(C(=O)c2ccc3c(=O)n(-c4cc(OC)ccc4OC)c(=S)[nH]c3c2)CC1	/	/	-6%	40%[activator]
7	O=C(NCCCN1CCOCC1)c1ccc(CSc2ccc(Cl)cc2)cc1	/	/	-9%	-14%
8	O=C1OCCC1Sc1nnc(-c2ccccc2Cl)n1Cc1ccccc1 (stereo not drawn)	0.9%	-8%	-18%	-10%
9	Cc1ccc(-n2c(SCC(=O)N3CCN(c4ccccn4)CC3)nnc2N2CCCC2)cc1	/	/	-4%	0%

entry	SARS PLP yeast	MARV entry inh	Cruzain noTriton	Lassa entry inh
1	0%	?	25%	?
2	-2%	-1%[46.1 µM]	/	-29%
3	/	?	/	?
4	/	8%[46.1 µM]	-12%	?
5	/	-1%[46.1 µM]	/	7%[46.1 µM]
6	2%	?	/	12%[46.1 µM]
7	-4%	?	/	-27%
8	20%	-1%	2%	-19%
9	-1%	?	/	17%

Sorted by molecular weight (highest first): some entries from above.
entry	smiles	Cruzain inh Det	NS1 function inh	RE007 growth inh	2A StopGo
4	CCOC(=O)N1CCc2c(sc3c2c(=O)n(-c2ccc(CC)cc2)c(=O)n3Cc2ccc(F)cc2Cl)C1	-3.5%	/	/	-8%
6	CCOC(=O)N1CCN(C(=O)c2ccc3c(=O)n(-c4cc(OC)ccc4OC)c(=S)[nH]c3c2)CC1	/	/	-6%	40%[activator]
9	Cc1ccc(-n2c(SCC(=O)N3CCN(c4ccccn4)CC3)nnc2N2CCCC2)cc1	/	/	-4%	0%
1	CCCc1ccc(-c2cc(NC(=O)CSc3nnc(N)s3)n(-c3ccccc3)n2)cc1	-14%	?	-6%	6%
2	O=C(Nc1ccccc1N1CCCCC1)c1ccc(F)c(S(=O)(=O)N2CCOCC2)c1	/	/	32%	1%
7	O=C(NCCCN1CCOCC1)c1ccc(CSc2ccc(Cl)cc2)cc1	/	/	-9%	-14%
8	O=C1OCCC1Sc1nnc(-c2ccccc2Cl)n1Cc1ccccc1 (stereo not drawn)	0.9%	-8%	-18%	-10%
3	C=C(c1ccc2nc(NC(=O)OC)[nH]c2c1)c1cccs1	/	/	9%	12%
5	[O-][n+]1cccc2cccc(O)c21	/	/	25%	3%

entry	SARS PLP yeast	MARV entry inh	Cruzain noTriton	Lassa entry inh
4	/	8%[46.1 µM]	-12%	?
6	2%	?	/	12%[46.1 µM]
9	-1%	?	/	17%
1	0%	?	25%	?
2	-2%	-1%[46.1 µM]	/	-29%
7	-4%	?	/	-27%
8	20%	-1%	2%	-19%
3	/	?	/	?
5	/	-1%[46.1 µM]	/	7%[46.1 µM]
